# Sa growth 42C – blocks Staphylococcus aureus growth | S. aureus RN4220 growth, OD600, 20 h, 42 °C; stronger effect = lower value | relative growth, % (test concentration not listed) | actives 0.53% (n = 170,000);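 active = growth at 42 °C up to 50% and 20 or more points under that at 30 °C, or under 10% at both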;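 note: 300 nL library stock went into each well; scaled to the means of positive and negative controls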
# HCMV UL50-53 inh – inhibitors of HCMV UL50-UL53 nuclear egress complex interaction | HTRF UL50-UL53 interaction, normalized percent inhibition | inhibition, % (no concentration beside the values) | actives 0.15% (n = 190,000);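 active = both replicates at 50% or more, plus weaker picks with an unusually low signal ratio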;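 note: stock transfer was 100 nL into about 20 µL; 0% = negative control wells and 100% = wells with untagged competitor protein; inactives centre near -12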
# GIV Gai3 FP – inhibitors of GIV GBA-motif binding to rat Galpha-i3 | percent of control (FP), % (no concentration beside the values) | AID 1224905 | Galpha-i3/FITC-GIV peptide fluorescence polarization, 90 min; stronger effect = lower value; scaled: aluminum fluoride 0%, vehicle 100% | actives 0.42% (n = 210,000) | P08753;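 active = replicate mean at 85% of control or lower, very high polarization wells dropped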;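 note: wells of about 15 µL received 100 nL stock; the first replicate is given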
# Target sequence (P08753 whole entry, looked up): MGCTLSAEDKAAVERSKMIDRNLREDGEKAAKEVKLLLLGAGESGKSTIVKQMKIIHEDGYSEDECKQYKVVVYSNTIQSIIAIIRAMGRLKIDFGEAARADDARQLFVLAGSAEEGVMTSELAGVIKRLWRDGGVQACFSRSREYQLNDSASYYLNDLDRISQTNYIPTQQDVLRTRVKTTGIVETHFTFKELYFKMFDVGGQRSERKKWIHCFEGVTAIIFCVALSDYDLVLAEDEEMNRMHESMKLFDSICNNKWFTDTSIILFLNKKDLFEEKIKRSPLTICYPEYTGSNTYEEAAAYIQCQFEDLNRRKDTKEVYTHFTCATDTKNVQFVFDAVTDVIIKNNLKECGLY
# Sa growth 42C second temp – also measured in Sa growth 42C; calls as there; relative growth, %; measured here: growth at 30 °C;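 optical density after 20 h as mean of two plates; 100% = untreated growth and lower means inhibition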
# * = called active by the depositor; nt = no result given; & = joins results of further samples.
SMILES,Sa growth 42C,Sa growth 42C second temp,HCMV UL50-53 inh,GIV Gai3 FP
CCOc1ccc(Nc2nc(N)nc(CN3CC(C)CC(C)C3)n2)cc1 (stereo not drawn),86,80,nt,109
COCCN(C(=O)C1CC1)c1nnc(-c2cc(OC)c(OC)c(OC)c2)s1,114,82,-4,102
Cc1c[nH]c(=S)c(C#N)c1,26,30,-79,123
COc1ccc(CC(=O)NCCc2n[nH]c(Cc3ccc(C)cc3)n2)cc1OC,nt,nt,-7,100
CCC(C(=O)NCc1ccc(C)cc1)N1C(=O)CCCc2ccccc21 (stereo not drawn),nt,nt,0,122
O=S1(=O)c2ccccc2N(Cc2ccc(F)cc2)c2ccccc21,94,82,nt,98
CC1=Nc2cc(C(=O)N(C)Cc3ccccc3)ccc2Sc2ccc(Cl)cc21,84,72,nt,105
COc1ccc(OC)c2[nH]c(C(F)(F)F)nc12,nt,nt,-3,106
Nc1c(C(=O)c2ccc3c(c2)OCCO3)oc2ccccc12,89,73,-41,nt
O=C(Cc1cc(=O)[nH]c(=O)[nH]1)N1CCN(c2cccc(Cl)c2)CC1,91,87,-45,103
CCOC(=O)CCc1c(C)nc2c(c(C)nn2-c2ccccc2)c1C,86,103,3,110
CCOc1ccccc1NC(=O)Cn1cnc2c(nnn2Cc2ccc(F)cc2)c1=O,116,82,1,100
Cc1ccc(S(=O)(=O)NCCn2c(-c3ccncc3)nc3cccnc32)cc1C,nt,nt,-11,111
CC(=O)N/N=C/c1cc(C(C)C)cc(/C=N/NC(C)=O)c1O,81,55,-85,81*
Cc1ccc(-n2ccnc(NCCC3=CCCCC3)c2=O)cc1,nt,nt,-3,110
COc1ccc(C(=O)N2CCN(c3cc(N(C)C)nc(C)n3)CC2)cc1,nt,nt,-22,103
CC(Oc1ccc(Cl)cc1Cl)C(=O)NC1=NN(c2ccccc2)C(=O)C1 (stereo not drawn),70,34,nt,104
COc1ccccc1NC(=O)c1sc2nc(C)c(C(=O)Nc3ccc(C)cc3C)c(-c3ccccc3Cl)c2c1N,93,102,-1,107
COc1ccc(/C=C2\SC(=O)N(CC(=O)Nc3nccs3)C2=O)cc1OC,nt,nt,-23,102
CCOC(=O)C1CCN(C(=O)c2ccc(-n3ccc4ccccc43)s2)CC1,90,86,nt,104
COc1ccc(C(=O)c2sc3nc(N)c(C#N)c(-c4ccc(OC)cc4)c3c2N)cc1,nt,nt,-34,108
Cn1c(=O)n(-c2ccc3c(c2)OCO3)c2nc(-c3ccccc3)nc(C(N)=O)c21,116,93,-25&-38,105&102
O=C(NCCc1ccc(Cl)cc1)c1ccc(CS(=O)Cc2ccccc2Cl)o1 (stereo not drawn),117,65,nt,106
CCSC1=N/C(=C\c2cccc(F)c2)C(=O)S1,110,92,nt,102
O=C(COC(=O)Cc1cccc(C(F)(F)F)c1)NC1CCCCC1,110,91,-12,nt

# Compounds shown so far containing a furan ring, fused or not, in the order listed:
SMILES,Sa growth 42C,Sa growth 42C second temp,HCMV UL50-53 inh,GIV Gai3 FP
Nc1c(C(=O)c2ccc3c(c2)OCCO3)oc2ccccc12,89,73,-41,nt
O=C(NCCc1ccc(Cl)cc1)c1ccc(CS(=O)Cc2ccccc2Cl)o1 (stereo not drawn),117,65,nt,106

# Carrying on:
SMILES,Sa growth 42C,Sa growth 42C second temp,HCMV UL50-53 inh,GIV Gai3 FP
COc1cccc(-c2cc(C(F)(F)F)n3ncc(C(=O)NCc4ccccc4OC)c3n2)c1,nt,nt,10,100
O=C(O)c1cc(Cl)c[nH]1,85,86,18,nt
Cn1c(=O)c2c(nc(Sc3nnc(NC(=O)NCC4CCCO4)s3)n2C)n(C)c1=O (stereo not drawn),nt,nt,-30,101
CCOC(=O)c1sc2ccccc2c1S(=O)(=O)Nc1ccc(N(C)C)cc1,120,100,nt,108
O=C1CC(Sc2nnc(-c3ccccc3O)o2)C(=O)N1c1ccccc1 (stereo not drawn),50,28,3,110
CCn1c(Cn2cccn2)nc2cc(NC(=O)C3CCCCC3)ccc21,nt,nt,-11,100
CCOC(=O)c1ccc(NC(=O)c2oc3ccc4c(c3c2C)C(=O)CC(C)(CC)O4)cc1 (stereo not drawn),93,86,-2,108
COc1ccc(CC2=C(O)c3ccccc3C(=O)C2=O)cc1,61,49,-181,94
Cc1nn(-c2ccccc2)nc1CNS(=O)(=O)c1ccc2c(c1)OCCN2C,101,96,-57,102
CCOc1ccccc1NC(=O)CN(c1nccs1)S(=O)(=O)c1ccc(N)cc1,65,81,-8,nt
O=S(=O)(CCN1CCC(C(F)(F)F)CC1)c1ccccc1,108,84,-13,103
Cc1cc(-c2ccc(S(=O)(=O)Nc3ccc(Cl)cc3)cc2)on1,59,81,nt,106
O=C(O)C1CCN(c2nc3ccsc3c(=O)n2-c2ccc(F)cc2)CC1,nt,nt,-19,98
Cc1cccc(NC(=O)Cc2ccc(NC(=O)N3CCSc4ncccc43)cc2)c1,nt,nt,-17,100
O=C(Cn1c2ccccc2c(=O)c2cc(Cl)ccc21)Nc1ccc(OCc2ccccc2)cc1,nt,nt,5,103
COc1ccc(Br)cc1C(=O)Nc1cc2c(cc1Sc1ccccc1)n(C)c(=O)n2C,nt,nt,-37,104
O=C(Nc1ccc(F)cc1)c1nnc(C(=O)N2CCCC(C(=O)NCc3cccnc3)C2)s1 (stereo not drawn),nt,nt,-30,106
CCOC(=O)c1cc(-c2ccc(F)cc2)n(CC(=O)NC2CCCCCC2)c1C,111,76,nt,104
Cc1ccc2nc(CSc3nc4ccccc4c(=O)[nH]3)cc(=O)n2c1,116,107,-7,nt
Cc1c(Cl)cccc1NC(=O)CSc1nc(=O)n(CCN2CCOCC2)c2c1CCC2,110,93,nt,95
c1ccc(N2CCN(c3ncnc4sc5c(c34)CCCCC5)CC2)cc1,nt,nt,-11,117
CCOC(=O)c1c(NC(=O)N2CC(C)Oc3ccc(C)cc32)sc2c1CCCC2 (stereo not drawn),nt,nt,-5,97
Cc1ccc(CNc2nc3nc(C)c(CCC(=O)Nc4cc(C)ccn4)c(=O)n3[nH]2)cc1,nt,nt,-24,103
Cc1cccc(C(=O)Nc2cnc3c(C)cccn3c2=O)c1,nt,nt,-98,104
CN(C)c1nc(C(=O)O)nc(N2CCOCC2)n1,102,83,-7,105

# Among those listed so far, 2 contain a cyano group:
SMILES,Sa growth 42C,Sa growth 42C second temp,HCMV UL50-53 inh,GIV Gai3 FP
Cc1c[nH]c(=S)c(C#N)c1,26,30,-79,123
COc1ccc(C(=O)c2sc3nc(N)c(C#N)c(-c4ccc(OC)cc4)c3c2N)cc1,nt,nt,-34,108

# (more compounds)
SMILES,Sa growth 42C,Sa growth 42C second temp,HCMV UL50-53 inh,GIV Gai3 FP
OCCNc1nc(NCCO)c2cnn(-c3ccccc3)c2n1,114,96,0,107
O=C(N/N=C/c1ccccc1)c1[nH]ncc1I,120,99,-8,93
Cc1nn(CC(=O)NCc2ccc(OC(C)C)cc2)c(=O)c2c(C)n(-c3ccc(Cl)cc3)nc12,93,90,nt,100
COc1ccccc1C(=O)COC(=O)C1CCCCN1S(=O)(=O)c1ccccc1 (stereo not drawn),95,86,-41,nt
Oc1ccc(Cl)cc1C=NCc1ccccc1,113,91,-4,100
CCOCCCN(C(=O)c1cc(=O)n(C)c2c1c(=O)n(C)c(=O)n2C)C1CCN(C)CC1,nt,nt,-26,101
Cc1cc(C(=O)NCc2cccc(Br)c2)c2c(C)nn(-c3ccccc3)c2n1,97,102,nt,100
CC1(C)OC(=O)C(=Cc2cccn2-c2ccc(S(N)(=O)=O)cc2)C(=O)O1,114,87,1,nt
COc1ccc(-c2nn3c(N4CCOCC4)cc(C)nc3c2C)cc1OC,nt,nt,0,111
CCc1ccc(NC(=O)CSc2ccc3nnc(CCNS(=O)(=O)c4ccc(OC)cc4)n3n2)cc1,104,82,nt,111
CCc1cccc(C)c1Nc1c(-c2ccc(SC)cc2)nc2sccn12,107,77,1,103
c1ccc(CCN2Cc3ccccc3C2)cc1,112,94,-8,110
N#Cc1nnn(-c2cc(Cl)cc(Cl)c2)c1N,90,82,-3,93
COc1cccc(Oc2nc3ncn(Cc4ccccc4)c3c(=O)n2C)c1,106,107,-7,112
CCOc1cc(C(=S)N2CCOCC2)ccc1OC,83,98,2,nt
COc1ccc(NC(=O)c2sc3nc[nH]c(=O)c3c2C)cc1OC,104,93,nt,98
CC(=O)N1CCCc2cc(S(=O)(=O)NC3CCCCC3)ccc21,103,89,nt,97
Cc1ccc(CNC(=O)C2CCN(S(=O)(=O)c3c(C)noc3/C=C/c3cccs3)CC2)cc1,99,86,-8,105
Cc1nn(-c2ccccc2)nc1CNC(=O)c1ncoc1-c1ccccc1,98,85,-24,106
COc1ccc(Oc2nc(N3CCCC3)c(Cl)c3c2N(Cc2ccccc2)CCS3(=O)=O)cc1,nt,nt,-10,103
Cc1oc(-c2cccc(Cl)c2)nc1CN1CCC(C(=O)NCCc2ccc(Cl)cc2)CC1,99,89,-33,105
Cc1onc(-c2c(Cl)cccc2Cl)c1C(=O)O/N=C(\C#N)c1ccccc1,97,84,-36,102
CCOC(=O)CCc1c(C)nc2nc(CNc3ccccc3F)[nH]n2c1=O,nt,nt,-32,106
CN(C)c1scc(-c2ccc(Cl)cc2)c1C#N,97,90,-31,100
Cc1ccc(C(=O)N/C(=C\c2cn(-c3ccccc3)nc2-c2ccccc2)C(=O)O)cc1,124,74,-28,nt
# More entries
SMILES,Sa growth 42C,Sa growth 42C second temp,HCMV UL50-53 inh,GIV Gai3 FP
O=C(Nc1ccc2c(c1)OCO2)C(O)(c1ccccc1)c1ccccc1,116,89,-1,100
COc1ccc(C(=O)Nc2ccc(-c3cn4cccnc4n3)cc2)cc1OC,80,85,-26,103
O=C(Nc1ccc2c(c1)OCO2)C(=S)NCc1ccccc1,112,99,19,106
CCOC(=O)c1noc2ncnc(Nc3ccc(C)c(F)c3)c12,106,90,nt,102
Oc1cccc(-c2nc3ccc4ccccc4c3c3c2CCCC3)c1,113,84,nt,107
CCOC(=O)CNC(=O)Nc1cc(C(=O)NCc2cccc(F)c2)ccc1N1CCCC1,92,88,nt,105
COC(=O)c1ccc(-c2nc3cc(NC(C)=O)ccc3o2)cc1,106,102,12,101
COc1ccccc1NC(=O)CN1C(=O)c2ccccc2Sc2ccc(C(=O)N3CCCC3)cc21,117,83,nt,105
Cc1cccc(CSc2nc3ccccc3n3c(C)nnc23)c1,nt,nt,-51,103
CCOC(=O)c1c(C)[nH]c(C)c1S(=O)(=O)NCC(=O)Nc1cccc(Cl)c1,81,79,nt,108
CN1OC(COC(=O)c2cc(Cl)cc(Cl)c2)CC12C1CC3CC(C1)CC2C3 (stereo not drawn),98,91,-46,100
c1ccc(C2CC(c3cccs3)n3nnnc3N2)cc1 (stereo not drawn),92,81,nt,96
CCC(CC)NC(=O)CSc1ccccc1,120,94,-4,112
Nc1cc(-c2ccccc2)nn1S(=O)(=O)c1ccccc1,112,93,nt,101
O=S(=O)(Cc1nc(-c2ccc(Cl)cc2)cs1)c1ccccn1,112,92,-14,109
CC(C)N(Cc1ccccc1)S(=O)(=O)c1cccc(C#N)c1,94,82,-10,nt
COc1ccc(NS(=O)(=O)c2ccc3c(c2)N(C(C)=O)CC(C)O3)cc1OC (stereo not drawn),98,79,-29,101
c1ccc(CCNc2nnns2)cc1,71,57,-19,100
O=C(Nc1csc(Cc2ccsc2)n1)Oc1ccccc1,109,93,-2,102
Cc1nnsc1-c1nnc(-c2ccccc2C(F)(F)F)o1,90,84,-25,98
COc1cccc(N2CCN(C(=O)c3ccc(NC(=O)c4nsc5ccccc45)cc3)CC2)c1,108,97,nt,106
CCN(CC(=O)NCc1cccs1)c1ncnc2sc3c(c12)CCCC3,73,85,-26,nt
COc1ccc(-c2nc(C)c(CCNC(=O)C(=O)Nc3c(C)cccc3C)s2)cc1OC,114,85,nt,102
Clc1cccc(C2Nc3ccc4ccccc4c3C3C=CCC32)c1Cl (stereo not drawn),nt,nt,-9,108
COc1nc2c(c(-c3ccco3)c1C#N)Cc1cc(NC(C)=O)ccc1-2,89,84,-25,104

# 3 of the entries above in order of their number in Sa growth 42C, largest number first.
SMILES,Sa growth 42C,Sa growth 42C second temp,GIV Gai3 FP
COc1cccc(N2CCN(C(=O)c3ccc(NC(=O)c4nsc5ccccc45)cc3)CC2)c1,108,97,106
CN1OC(COC(=O)c2cc(Cl)cc(Cl)c2)CC12C1CC3CC(C1)CC2C3 (stereo not drawn),98,91,100
COc1nc2c(c(-c3ccco3)c1C#N)Cc1cc(NC(C)=O)ccc1-2,89,84,104

# Next part
SMILES,Sa growth 42C,Sa growth 42C second temp,HCMV UL50-53 inh,GIV Gai3 FP
CCc1noc(C)c1C(=O)OCC(=O)NC12CC3CC(CC(C3)C1)C2,93,94,-6,nt
O=c1c2c(-c3ccc(Cl)cc3)csc2ncn1C1CCCCC1,nt,nt,-9,99
CC(C)(C)NC1CCCCC1NS(=O)(=O)c1ccccc1 (stereo not drawn),120,87,nt,103
CCOC(=O)c1oc2ccccc2c1Cn1nnc(-c2ccccc2)n1,91,91,0,nt
CC(Sc1nnc(C2CC2)n1C1CC1)C(=O)c1ccc(NS(C)(=O)=O)cc1 (stereo not drawn),108,101,5,nt
CCOC(=O)c1cnc2ccc(OC)cc2c1NCCc1ccccc1,96,85,-6,106
O=C(CSc1ncn[nH]1)Nc1ccc(S(=O)(=O)N2CCCCC2)cc1,88,87,-5,nt
Cc1ccc(CNC(=O)Cc2coc3cc(C)cc(C)c23)cc1,85,88,6,109
CC(C)CC(NS(=O)(=O)c1ccc2c(c1)oc(=O)n2C)C(=O)NC1CCCc2ccccc21 (stereo not drawn),90,101,1,106
COCc1cc(=O)[nH]c(-c2cccc(C)c2)n1,93,91,-22,102

# Bioassay records deposited in PubChem by ICCB-Longwood Screening Facility, Harvard Medical School.
